# Calb FLC: affects C. albicans growth with fluconazole; 0.57% of 300,000 active; growth inhibition, % (concentration not given with the values); C. albicans CaCi-2 (fluconazole-resistant clinical isolate) + fluconazole, Alamar Blue growth, 48 h; AID 1979;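 active = most replicates above 75%; inconclusive = exactly half above 75%; inactive = most below 75%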;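 note: all wells also contain fluconazole at 8 µg/ml as a sub-toxic cotreatment; 0% = median of DMSO wells and 100% = median of geldanamycin control wells; wells of about 8 µL received 7.5 nL stock; the first replicate is given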
# HNF4A DNA FP: change in binding of human HNF4 alpha to DNA | P41235 | HNF4a-FITC DNA binding, fluorescence polarization, 1 h | activity change, % at 10 µM | 0.3% of 360,000 active | AID 1224865; in the data active = activity change above about 30%, passing the limit was not always enough;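 note: controls were the assay level and a saturating level of protein; the project sought stronger binding though the title names inhibitors; some compounds called inactive have numbers as strong as hits; positive values seem to mean higher polarization but the record does not say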
# RanGTP-Impb inh: inhibitors of RanGTP-importin-beta interaction, primary screen, biochemical, FRET, CFP-Ran, YFP-importin-beta, homogeneous | AID 2216 | cell-free CFP-Ran/YFP-importin-beta FRET ratio | inhibition, % (test concentration not listed) | 1.1% of 300,000 active;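 active = most replicates above 15%; inconclusive = exactly half above 15%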;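 note: 0% = DMSO wells and 100% = Ran loaded with GDP instead of GTP; wells of about 40 µL received 100 nL stock; the first replicate is given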
# Vif TR-FRET: inhibitors of Vif binding to APOBEC3G peptide, primary screen, biochemical, TR-FRET, GST-Vif 1-94, biotin-A3G peptide, dose response retest (AID 1117319); inhibition, %; hits with a dose series show IC50 in µM; 0.57% of 260,000 active; TR-FRET GST-Vif / biotin-A3G peptide binding; higher % means a stronger effect; test concentration not given here; strong numbers were not always called active;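 active = above the screen mean plus three standard deviations and confirmed in dose response; inconclusive = results disagree or hit not tested in dose response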;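 note: Vif residues 1-94 fused to GST binding biotinylated APOBEC3G peptide 110-148; 0% = full assay without inhibitor and 100% = GST in place of GST-Vif; retest series ran down from 100 µM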
# ALR inh: inhibitors of human sulfhydryl oxidase ALR. inhibition, % (no concentration beside the values). purified ALR, DTT oxidation, H2O2 HRP-luminol luminescence. AID 485317. P55789. 3.8% of 290,000 active;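 active = mean and each replicate at 75% or more; inconclusive = only one of the two met; inactive = neither met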;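 note: stock transfer was 7.5 nL into about 7.5 µL; 0% = neutral wells and 100% = wells with inactivated enzyme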
# LANA-H2B inh: blocks KSHV LANA binding to histone H2A/H2B; inhibition, % (no concentration beside the values); Q9QR71; cell-free LANA-H2A/H2B peptide, fluorescence polarization; 0.6% of 320,000 active; in the data active = inhibition mostly above about 10%, no sharp cut-off; inactive = mostly below about 6.7%;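 note: stock transfer was 7.5 nL into about 10 µL; 0% = median of vehicle wells and 100% = median of positive control wells; one replicate is shown; the record names a cut of 25% in any replicate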
# Target sequence (Q9QR71 whole entry, looked up): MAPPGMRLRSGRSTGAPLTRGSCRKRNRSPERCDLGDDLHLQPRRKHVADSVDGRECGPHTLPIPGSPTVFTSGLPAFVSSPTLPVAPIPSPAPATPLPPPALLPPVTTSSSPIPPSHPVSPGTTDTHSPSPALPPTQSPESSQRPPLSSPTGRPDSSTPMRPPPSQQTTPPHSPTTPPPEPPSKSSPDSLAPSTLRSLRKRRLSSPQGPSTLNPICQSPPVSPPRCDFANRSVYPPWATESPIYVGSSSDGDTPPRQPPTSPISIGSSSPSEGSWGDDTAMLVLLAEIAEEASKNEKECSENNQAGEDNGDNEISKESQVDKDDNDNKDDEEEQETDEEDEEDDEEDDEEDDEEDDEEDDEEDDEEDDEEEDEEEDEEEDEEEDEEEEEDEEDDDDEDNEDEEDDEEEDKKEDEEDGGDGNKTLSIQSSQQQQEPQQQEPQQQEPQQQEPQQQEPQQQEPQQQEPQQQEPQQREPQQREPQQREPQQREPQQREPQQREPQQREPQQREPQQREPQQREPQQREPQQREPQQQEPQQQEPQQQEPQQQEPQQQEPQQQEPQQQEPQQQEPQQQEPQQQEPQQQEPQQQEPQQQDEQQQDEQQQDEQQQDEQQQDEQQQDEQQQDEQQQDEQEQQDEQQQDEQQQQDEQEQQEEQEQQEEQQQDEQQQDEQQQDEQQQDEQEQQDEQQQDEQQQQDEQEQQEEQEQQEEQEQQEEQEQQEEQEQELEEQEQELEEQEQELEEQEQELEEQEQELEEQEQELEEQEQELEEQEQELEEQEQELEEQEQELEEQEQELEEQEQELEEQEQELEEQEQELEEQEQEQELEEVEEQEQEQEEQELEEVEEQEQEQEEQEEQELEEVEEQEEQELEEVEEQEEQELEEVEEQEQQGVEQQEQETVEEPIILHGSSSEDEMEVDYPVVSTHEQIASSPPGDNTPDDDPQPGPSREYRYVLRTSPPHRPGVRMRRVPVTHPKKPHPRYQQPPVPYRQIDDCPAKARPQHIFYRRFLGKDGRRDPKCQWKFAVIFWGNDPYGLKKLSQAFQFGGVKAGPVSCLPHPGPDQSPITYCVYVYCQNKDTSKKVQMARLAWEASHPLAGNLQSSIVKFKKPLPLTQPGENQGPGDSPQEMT
# B2AR ag: activates human beta-2 adrenergic receptor causing internalization | response, % (concentration not given with the values) | 0.43% of 340,000 active | Am2.2-beta2AR cells, FAP receptor internalization, flow cytometry; reference of the scale not given here | P07550;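 active = response above a set limit, near 3 SD of response in nonfluorescent compounds, cut at about 42% in these data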;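 note: stock transfer was 100 nL into about 11 µL; a reference agonist was the positive control; negative values mostly stem from fluorescent compounds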
# Numbers without * were called inactive; ? = inconclusive; / = not tested or not shown; & = joins results of further samples.
structure	Calb FLC	HNF4A DNA FP	RanGTP-Impb inh	Vif TR-FRET	ALR inh	LANA-H2B inh	B2AR ag
COc1ccccc1N(C(=O)c1ccco1)C(C(=O)NC1CCCC1)c1cccs1 (stereo not given)	10	-1.3	1.6	/	-4	1.4	21
COc1ccc(C(=O)OCC(=O)NCC2CCCCC2)cc1S(=O)(=O)N1CCCc2ccccc21	-10	-1.8	4.5	-9%	0	-1.1	-4
Cc1cc(N2CCN(C(=O)c3ccco3)CC2)n2nc(-c3cccc(Cl)c3)cc2n1	36	0.5	0.9	-1%	/	3.3	42*
COc1cc(OC)c(N(C)S(=O)(=O)c2cccc(C(=O)Nc3nccs3)c2)cc1Cl	/	-1.0	/	1%	-5	3.6	3
Cc1sc2ncnc(OCC(=O)NC3CCS(=O)(=O)C3)c2c1C (stereo not given)	-3	0.7	2.2	2%	/	-2.3	-3
O=C(O)CCCSCC(=O)Nc1ccccc1	12	16	-3.4	0%	-9	0.3	2
CCOC(=O)c1cc(C)nc(N2CCCCC2)c1C#N	4	4.6	3.2	4%	-6	0.4	2
CCCn1ncc(CN2CCC(n3nccc3NC(=O)c3ccccc3OC)CC2)c1C	22	1.4	-3.8	-3%	-3	5.1	-4
COc1ccc(OC)c(C2C(C(=O)c3ccccc3)=C(C)Nc3nc4ccccc4n32)c1 (stereo not given)	1	2.7	0.7	-3%	-4	-4.0	5
COc1ccc(NC(=O)C23CC4CC(C2)CC(n2cnc(Br)n2)(C4)C3)c(C)c1	22	0.8	4.3	22%	-2	-0.2	0
O=C(c1cc2cc(F)ccc2[nH]1)N(Cc1cccnc1)CC1CCCN(C2CCCCC2)C1 (stereo not given)	0	-0.8	-0.4	/	-37	1.3	5
COc1ccc(OC)c(C(c2nnnn2C2CCCC2)N2CCN(c3ccc(F)cc3)CC2)c1 (stereo not given)	-7	-4.6	1.7	9%&-3%	-7	-8.6	-5
Cc1ccc(Nc2ccc(N3CCN(c4ccc([N+](=O)[O-])cc4)CC3)nn2)cc1	-2	1.1	0.8	-4%	-20	1.3	1
CCc1nnc(NC(=O)CN2CCN(Cc3ccc(F)cc3)CC2)s1	1	5.3	-3.7	5%	-8	-4.3	9
CCNc1nc(NCC)nc(Oc2ccc(OCc3ccccc3)nn2)n1	-2	/	2.7	/	-4	1.6	/
COc1cc(/C=C2\N=C(c3c(-c4ccccc4)noc3C)OC2=O)ccc1OC(C)=O	18	7.0	-2.7	2%	8	5.8	5
N#C/C(=C(\O)c1ccco1)c1ccccn1	-7	2.0	-1.6	-4%	-2	-3.8	-9
CCOC(=O)c1sc(N(Cc2ccccc2)C(=O)CN2C(=O)CN(C)C2=O)nc1C	2	2.0	-0.4	6%	-6	2.5	-7
OC(CCN1CCC2CCC(C2)C1)c1ccc(Br)cc1 (stereo not given)	/	0.6	/	-4%	/	/	-6
COc1ccc2cc(CCNC(=O)c3ccc(S(=O)(=O)N4CCOCC4)cc3)c(=O)[nH]c2c1	5	4.0	1.0	2%	-4	8.6	2

# (list continues)
structure	Calb FLC	HNF4A DNA FP	RanGTP-Impb inh	Vif TR-FRET	ALR inh	LANA-H2B inh	B2AR ag
Cc1cccc(C)c1NC(=O)CS(=O)CC(=O)NC1CCN(Cc2ccccc2)CC1 (stereo not given)	-7	-0.7	-1.0	76%	-13	-1.2	1
O=C(CCC(=O)c1cccs1)NCc1cccc(Cl)c1	-2	2.6	/	-1%	0	0.2	-1
CCN(c1ccccc1)S(=O)(=O)c1nnc(NC(=O)C(C)(C)C)s1	-7	0.5	-2.4	-2%	/	3.8	-7
C=CCN(CC=C)C(=O)C(=O)c1ccn(-c2c(C)csc2C(=O)OC)c1	1	1.0	-0.9	-1%	3	-1.3	8
C[N+](C)(C)CC/C=C1/c2ccccc2CSc2ccccc21	-13	-0.7	1.2	9%	-7	2.9	3
O=C(COc1ncnc2cc(Cl)ccc12)c1ccc2c(c1)OCCO2	10	1.0	2.0	23%	-5	-3.5	-3
CCn1c(CNc2cccc(Cl)c2)nnc1SCC(=O)OC1CCCCC1	4	3.7	0.6	-2%	11	-3.4	2
Cc1ccc(C(=O)c2nccn2C)cc1C	9	-0.5	-0.3	/	1	2.5	0
Cc1ccc(NC(=O)CN(C)C(=O)COc2ncnc3ccc(Br)cc23)cc1	/	1.9	/	-53%	0	/	-1
CCCn1cnc2c(SCc3ccccc3)nc(N)nc21	/	0.0	/	-10%	/	/	-7
Cc1ccc(/C=C/C(=O)O)cc1S(=O)(=O)NCc1cccnc1	-9	-3.1	1.3	14%	/	-2.2	-4
CS(=O)(=O)N1CCc2nc(-c3ccccc3)sc2C1	7	-1.3	1.3	-2%	-5	-4.5	37
NNc1ccc2nncn2n1	-13	1.8	-0.5	0%	5	5.4	0
O=C(NCCN1CCCCC1)Nc1ccccc1	4	4.9	-2.9	-2%	-1	-1.4	-1
O=C(Nc1cccc(S(=O)(=O)Nc2ccccc2Cl)c1)c1ccc(Cl)nc1	-10	4.6	0.0	/	-1	-2.6	-11
CN(CC(=O)Nc1ccc(F)c(F)c1F)C(=O)c1cc(-c2ccncc2)nc2ccccc12	6	9.4	0.8	-8%	/	-2.2	14
COc1ccc2cc(/C=N/NC(=O)CN(c3ccccc3)S(=O)(=O)c3ccccc3)c(Cl)nc2c1	-13	/	?	-49%	-1	0.7	/
O=C(Nc1ccc2c(c1)OCCO2)c1c(F)c(F)c(F)c(F)c1F	-5	1.4	5.0	-1%	/	4.8	-3
CCN(CC)c1ccc(NC(=O)c2ccc3c(c2)OCO3)cc1	-7	3.3	-0.3	/	99*	-0.2	6
CCNC(=O)CCSc1nnc(-c2ccncc2)o1	4	2.2	-4.5	-5%	-2	0.7	-1

# Reprinted from the entries so far (14 entries):
structure	Calb FLC	HNF4A DNA FP	RanGTP-Impb inh	Vif TR-FRET	ALR inh	LANA-H2B inh	B2AR ag
C=CCN(CC=C)C(=O)C(=O)c1ccn(-c2c(C)csc2C(=O)OC)c1	1	1.0	-0.9	-1%	3	-1.3	8
C[N+](C)(C)CC/C=C1/c2ccccc2CSc2ccccc21	-13	-0.7	1.2	9%	-7	2.9	3
O=C(COc1ncnc2cc(Cl)ccc12)c1ccc2c(c1)OCCO2	10	1.0	2.0	23%	-5	-3.5	-3
CCn1c(CNc2cccc(Cl)c2)nnc1SCC(=O)OC1CCCCC1	4	3.7	0.6	-2%	11	-3.4	2
Cc1ccc(C(=O)c2nccn2C)cc1C	9	-0.5	-0.3	/	1	2.5	0
Cc1ccc(NC(=O)CN(C)C(=O)COc2ncnc3ccc(Br)cc23)cc1	/	1.9	/	-53%	0	/	-1
CCCn1cnc2c(SCc3ccccc3)nc(N)nc21	/	0.0	/	-10%	/	/	-7
Cc1ccc(/C=C/C(=O)O)cc1S(=O)(=O)NCc1cccnc1	-9	-3.1	1.3	14%	/	-2.2	-4
CS(=O)(=O)N1CCc2nc(-c3ccccc3)sc2C1	7	-1.3	1.3	-2%	-5	-4.5	37
NNc1ccc2nncn2n1	-13	1.8	-0.5	0%	5	5.4	0
O=C(NCCN1CCCCC1)Nc1ccccc1	4	4.9	-2.9	-2%	-1	-1.4	-1
O=C(Nc1cccc(S(=O)(=O)Nc2ccccc2Cl)c1)c1ccc(Cl)nc1	-10	4.6	0.0	/	-1	-2.6	-11
CN(CC(=O)Nc1ccc(F)c(F)c1F)C(=O)c1cc(-c2ccncc2)nc2ccccc12	6	9.4	0.8	-8%	/	-2.2	14
COc1ccc2cc(/C=N/NC(=O)CN(c3ccccc3)S(=O)(=O)c3ccccc3)c(Cl)nc2c1	-13	/	?	-49%	-1	0.7	/

# (more compounds)
structure	Calb FLC	HNF4A DNA FP	RanGTP-Impb inh	Vif TR-FRET	ALR inh	LANA-H2B inh	B2AR ag
O=C(COC(=O)CC(c1ccccc1)c1ccccc1)Nc1c(F)cccc1F	16	/	1.1	-9%	/	0.8	/
CC1C(=O)C(C)C(c2cccc(Br)c2)NC1c1cccc(Br)c1 (stereo not given)	2	4.7	1.5	-1%	-17	-2.5	2
O=C(NCCNc1ccc([N+](=O)[O-])cc1)c1cccs1	11	1.9	-9.9	/	/	-0.7	12
CCC1(C)OC(=O)NN(c2ccc(C)cc2)C1(C)O (stereo not given)	0	-3.4	-0.1	7%	95*	6.2	-4
Cc1csc(NC(=O)CCC(=O)N(CC(=O)NC2CCCC2)c2ccccc2)n1	0	3.4	5.6	/	-1	-0.7	2
CCOC(=O)C1=C(C)Nc2ccccc2N=C1NC(=O)c1ccc(Cl)c(S(=O)(=O)N2CCCC2)c1	23	2.5	1.1	-2%	-1	-4.2	2
Cn1c(=O)c2[nH]c(N3CCN(c4ccccc4)CC3)nc2n(C)c1=O	-5	1.0	1.0	12%	12	0.1	-1
CCn1c(CNC(=O)c2ccco2)nnc1SCC(=O)c1ccc(OC)cc1	4	4.0	-2.3	3%	28	-5.7	2
COc1ccc(OCCCn2cc(/C=C3/C(=N)N4C=C(C)SC4=NC3=O)c3ccccc32)cc1	2	-1.1	-63	-31%	0	0.5	-8
Cc1ccc(C(=O)CC(=O)COc2ccc(Cl)cc2C)cc1	7	1.6	8.3	/	-6	2.5	0
c1cn(C23CC4CC(CC(C4)C2)C3)cn1	-4	-1.5	0.7	-4%	/	4.6	-7
COc1ccccc1-c1c(C)nn2c(NCCN3CCCC3)cc(C)nc12	-2	0.7	-1.9	7%	-10	-2.9	10
CCOc1ccc(C(=O)NCC(=O)NCC(c2ccc(OC)cc2)N2CCCC2)cc1 (stereo not given)	-6	0.5	6.2	4%	-7	-3.1	-6
COc1ccc(-c2nc3ccccc3c(=O)n2CCOc2ccccc2C)cc1	6	-1.1	-0.1	2%	0	1.9	5
Cc1[nH]n(-c2cccc(Cl)c2)c(=O)c1-c1ccccc1	17	1.4	1.1	1%	84*	0.0	3
CC(C)(C)OC(=O)[C@H](Cc1ccccc1)NC(=O)c1nc[nH]c1C(=O)NCC(=O)OCc1ccccc1	19	-0.3	1.1	/	/	-2.9	12
CSc1ccc(C(=S)N2CCN(Cc3ccccc3)CC2)cc1	-8	-0.1	-2.2	-5%	-13	2.5	3
COc1ccccc1C(=O)NCc1ccc(-c2nc3ccccc3s2)cc1	19	1.0	2.3	/	-6	0.6	2
COC(=O)c1ccc(NC(=O)COC(=O)COc2cccc3c2OC(C)(C)C3)cc1	/	1.3	/	4%	0	0.6	6
COc1cccc(NC(=O)c2ccc(-n3cnnn3)cc2)c1	-9	2.5	0.1	/	/	3.5	1

# 3 entries from above, sorted by their value in Vif TR-FRET, low to high:
smiles | HNF4A DNA FP | RanGTP-Impb inh | Vif TR-FRET | ALR inh | LANA-H2B inh | B2AR ag
CCCn1ncc(CN2CCC(n3nccc3NC(=O)c3ccccc3OC)CC2)c1C | 1.4 | -3.8 | -3% | -3 | 5.1 | -4
CCOC(=O)c1cc(C)nc(N2CCCCC2)c1C#N | 4.6 | 3.2 | 4% | -6 | 0.4 | 2
CCC1(C)OC(=O)NN(c2ccc(C)cc2)C1(C)O (stereo not given) | -3.4 | -0.1 | 7% | 95* | 6.2 | -4

# Continued.
structure	Calb FLC	HNF4A DNA FP	RanGTP-Impb inh	Vif TR-FRET	ALR inh	LANA-H2B inh	B2AR ag
Cc1ccc(OCC(=O)NNC(=O)c2ccccc2OCc2c(C)noc2C)cc1	-5	5.5	-4.5	2%	1	-4.4	0
Nc1[nH]c(=S)nc2nc(-c3ccccc3)c(-c3ccccc3)nc12	1	-0.5	?	6%	24	-3.5	-5
COc1cccc(CN2CCCC(C(=O)Nc3ccc(-c4cscn4)cc3)C2)c1 (stereo not given)	-4	1.0	-0.2	/	3	1.4	-15
CC[C@@H]1[C@H]2CCCC(=O)N3CC[C@@H](C[C@@H]1OC(=O)Nc1ccccc1)[C@@H]23	-25	4.4	2.7	/	-2	1.1	1
